VACV Venus inh = vaccinia inhibition (Venus reporter). Vaccinia virus Venus reporter expression, fluorescence. Potency, µM (top dose mostly 36.5 µM), inactives show at the top dose activity change, negative = inhibition, actives largely listed as inhibitors. hit rate 0.46% among 330,000; active means well fitted inhibition curve with a large enough effect; inconclusive means small, poorly fitted or top-dose-only effect; inactive means no such curve, though single readings can be large or run the other way; tested in A549 cells; also: nearly all actives have a fitted effect of over 30% in size; inactives centre near -10
VACV mCherry inh = inhibitors of vaccinia virus infection (mCherry reporter signal). Vaccinia virus mCherry reporter infection, fluorescence; about a quarter of the inactives have no number. Potency, µM (series often up to 36.5 µM), for the others: top-dose activity change, negative = inhibition, usual class: inhibitors. hit rate 0.63% among 310,000. AID 720579; active = well fitted inhibition curve with a large enough effect; inconclusive = small, poorly fitted or top-dose-only effect; inactive = no such curve, though single readings can be large or run the other way; tested in A549 cells; also: nearly all actives have a fitted effect of over 35% in size; inactives centre near -10
* hit, by the source's call; [ ] = another dose, or the depositor's remark. % is scaled to controls: 0 for no effect and ±100 for the full control effect; potency is read from the fitted curve at half-maximal effect.

Screening CCOC(=O)CC(NC(=O)C1c2ccccc2Oc2ccccc21)c1ccccc1Cl (configuration not stated) returned VACV Venus inh 6% and VACV mCherry inh 0%.
For Nc1c(C(=O)CSc2nnnn2-c2ccccc2)c(=O)[nH]c(=O)n1C1CC1 the results were VACV Venus inh -4% and VACV mCherry inh inactive.
For COc1cc(NC(=O)CSc2ncc(S(=O)(=O)c3ccc(Br)cc3)c(=O)[nH]2)cc(OC)c1 the results were VACV Venus inh 6% and VACV mCherry inh 9%.
`Cc1cn(C)c(CC(=O)NCc2ccccc2Cl)c1C(=O)O` gave VACV Venus inh -6% and VACV mCherry inh -3%.
For CC1(C(=O)NS(=O)(=O)c2cccs2)CCN1C(=O)C1(c2ccc(Cl)cc2)CCC1 (configuration not stated) the results were VACV Venus inh 2% and VACV mCherry inh 43%[activator].
For CCN(CC)CCCNC(=O)Cc1ccc(NC(=O)N2CCCCc3ccccc32)cc1 the results were VACV Venus inh -5% and VACV mCherry inh -1%.
Screening COc1ccccc1C(=O)NC1(C(F)(F)F)C(=O)Nc2c1c(=O)[nH]c(=O)n2-c1ccc(F)cc1 (configuration not stated) returned VACV Venus inh 1% and VACV mCherry inh -3%.
Cc1cc(C)c(NC(=O)CCc2c(C)nc3c(c(C)nn3C(C)(C)C)c2C)c(C)c1 was read as VACV Venus inh -7% and VACV mCherry inh -5%.
For COc1ccc(OCCn2c(C)nc3ccccc32)cc1 the results were VACV Venus inh -22% and VACV mCherry inh -10%.
For CCCNC(=O)C1(C)CCCN(C(=O)c2ccccc2OC)C1 (configuration not stated) the results were VACV Venus inh -7% and VACV mCherry inh 19%.
For O=C1CSC2(C(=O)N(Cc3c(F)cccc3Cl)c3ccccc32)N1c1ccc(F)c(F)c1 (configuration not stated) the results were VACV Venus inh -5% and VACV mCherry inh 3%.
`CCCSc1nnc2c(n1)OC(CC)N(C(C)=O)c1ccccc1-2` (configuration not stated) gave VACV Venus inh 15% and VACV mCherry inh -6%.
Screening O=C(c1cc2c(=O)oc3ccccc3c2s1)N1CCOCC1 returned VACV Venus inh -13% and VACV mCherry inh inactive.
Screening NC(=O)c1sc2nc3c(c(-c4ccc(Cl)cc4)c2c1N)CCCC3 returned VACV Venus inh inconclusive and VACV mCherry inh inconclusive.
For CCOc1ccc(NC(=O)CN(C)C(=O)c2ccc3c(c2)C(=O)N(CCC(C)C)C3=O)cc1OCC the results were VACV Venus inh -12% and VACV mCherry inh -5%.
`O=C(Nc1ccc(Nc2ccccc2)cc1)c1c(Cl)cccc1Cl` gave VACV Venus inh -10% and VACV mCherry inh inconclusive.
Cc1ccc(C)c(S(=O)(=O)N2CCCOC2CNC(=O)C(=O)NC2CCCCC2)c1 (configuration not stated) was read as VACV Venus inh -8% and VACV mCherry inh -2%.
COc1ccccc1-c1sc2cc3c(cc2c1C#CCO)OCO3 was read as VACV Venus inh -8% and VACV mCherry inh 0%.
Screening C[C@@H]1CN([C@H](C)CO)C(=O)CCCn2nncc2CO[C@@H]1CN(C)C(=O)C1CC1 returned VACV Venus inh 1% and VACV mCherry inh -14%.
Screening COc1ccc(/C=C/c2nc(C#N)c(NC3CCCCC3)o2)cc1OC returned VACV Venus inh -17% and VACV mCherry inh -16%.
CCN(CC)S(=O)(=O)c1cccc(NC(=O)COc2ccc(Cl)cc2Br)c1 was read as VACV Venus inh inconclusive and VACV mCherry inh inconclusive.
For COc1cccc(C2C(C(N)=O)=C(C)Nc3nc(CCCO)nn32)c1OC (configuration not stated) the results were VACV Venus inh 2% and VACV mCherry inh 1%.
`COc1cccc(/C=N/n2c(COc3ccccc3)n[nH]c2=S)c1` gave VACV Venus inh -1% and VACV mCherry inh -7%.
`Cc1ccc(C2=NNC(=O)C(c3ccc(Cl)cc3)C2)cc1` (configuration not stated) gave VACV Venus inh -28%.
CCCc1cc(=O)oc2c3c(ccc12)OCN(Cc1ccccc1OC)C3 was read as VACV Venus inh -1% and VACV mCherry inh -13%.
For Cc1ccc(C(=O)N2CCCC(CCC(=O)NCc3ccccc3F)C2)cn1 (configuration not stated) the results were VACV Venus inh -4% and VACV mCherry inh -6%.
CC[n+]1c(/C=C2\C=C(C)CC(C)C2)sc2ccccc21 (configuration not stated) was read as VACV Venus inh -9%.
For O=C(CC1OC(=O)c2ccccc21)NC1CCCCC1 (configuration not stated) the results were VACV Venus inh -5% and VACV mCherry inh -9%.
`Cc1ccc(Cl)cc1NC(=O)COC(=O)CCN1C(=O)C2CC=CCC2C1=O` (configuration not stated) gave VACV Venus inh -13% and VACV mCherry inh -7%.
CC(C)=CCN1CCN(Cc2cn[nH]c2C2CCCCC2)CC1CCO (configuration not stated) was read as VACV Venus inh -7% and VACV mCherry inh -1%.
Screening O=C(c1ccccc1)N1CCCOC1c1ccccc1 (configuration not stated) returned VACV Venus inh 1% and VACV mCherry inh 2%.
COc1cccc(NC(=O)Nc2ccc(Cc3ccncc3)cc2)c1 was read as VACV Venus inh -24% and VACV mCherry inh -18%.
For COc1ccc(CNC(=O)CSc2nnc3c(n2)[nH]c2ccccc23)cc1 the results were VACV Venus inh -2% and VACV mCherry inh -2%.
For COc1ccc(CC(=O)Oc2ccc(Cl)cc2Br)cc1S(=O)(=O)N1CCOCC1 the results were VACV Venus inh -6% and VACV mCherry inh -2%.
Screening C[C@@H]1ON(C)[C@H]2C[C@H]3c4cc(N5CCN(C)CC5)ccc4CCN3C(=O)[C@@H]12 returned VACV Venus inh 3% and VACV mCherry inh inactive.
For COc1ccc(OC)c(-n2nnnc2SCC(=O)N2CCN(C(=O)c3ccco3)CC2)c1 the results were VACV Venus inh -7% and VACV mCherry inh -6%.
`Cc1cn([C@H]2C[C@H](O)[C@@H](CCC(=O)NCCc3c[nH]c4ccccc34)O2)c(=O)[nH]c1=O` gave VACV Venus inh -3% and VACV mCherry inh inactive.
For O=C(CCC(=O)N1CCOc2ccc(Cl)cc21)NCCCN1CCC(Cc2ccccc2)CC1 the results were VACV Venus inh -20% and VACV mCherry inh 11%.
O=C(N/N=C/c1cccnc1)c1ccc(S(=O)(=O)N2CCCCCC2)cc1 was read as VACV Venus inh 6% and VACV mCherry inh -15%.
Screening Cc1nc2cc(NC(=O)[C@@H]3C[C@@H](Sc4ccccn4)CN3C3CCCCCC3)ccc2s1 returned VACV Venus inh -18% and VACV mCherry inh inactive.
Screening COc1ccccc1S(=O)(=O)CC(O)COc1ccccc1Cl (configuration not stated) returned VACV Venus inh -23% and VACV mCherry inh -28%.
Screening COc1ccc(C(=O)NCc2cn3ccsc3n2)cc1OC returned VACV Venus inh -3% and VACV mCherry inh -23%.
For Cc1cc2ccccn2c1C(=O)c1ccc(S(=O)(=O)N(C)C)cc1 the results were VACV Venus inh -17% and VACV mCherry inh -14%.
Screening COC(=O)C1=C(c2c(C)noc2C)C[C@@H]2CC[C@H]1N2C(=O)N1CCCC1 returned VACV Venus inh 0% and VACV mCherry inh inactive.
Screening Cc1ccc(S(=O)(=O)NCC(=O)OCC(=O)c2ccc(Br)s2)cc1 returned VACV Venus inh -6% and VACV mCherry inh -15%.
Cc1c(NC(=O)C(C)OC(=O)c2ncc(Cl)c(Cl)c2Cl)c(=O)n(-c2ccccc2)n1C (configuration not stated) was read as VACV Venus inh -8% and VACV mCherry inh -10%.
For O=C(CSc1nncn1-c1cccnc1)Nc1cccc(C(F)(F)F)c1 the results were VACV Venus inh -7% and VACV mCherry inh -11%.
For COC(=O)c1ccccc1OCCCN(C)C the results were VACV Venus inh 1% and VACV mCherry inh -8%.

Molecules listed so far that contain an aryl thioether with sulfur outside any ring, in the order listed:
For Nc1c(C(=O)CSc2nnnn2-c2ccccc2)c(=O)[nH]c(=O)n1C1CC1 the results were VACV Venus inh -4% and VACV mCherry inh inactive.
For COc1cc(NC(=O)CSc2ncc(S(=O)(=O)c3ccc(Br)cc3)c(=O)[nH]2)cc(OC)c1 the results were VACV Venus inh 6% and VACV mCherry inh 9%.
`CCCSc1nnc2c(n1)OC(CC)N(C(C)=O)c1ccccc1-2` (configuration not stated) gave VACV Venus inh 15% and VACV mCherry inh -6%.
For COc1ccc(CNC(=O)CSc2nnc3c(n2)[nH]c2ccccc23)cc1 the results were VACV Venus inh -2% and VACV mCherry inh -2%.
For COc1ccc(OC)c(-n2nnnc2SCC(=O)N2CCN(C(=O)c3ccco3)CC2)c1 the results were VACV Venus inh -7% and VACV mCherry inh -6%.
Screening Cc1nc2cc(NC(=O)[C@@H]3C[C@@H](Sc4ccccn4)CN3C3CCCCCC3)ccc2s1 returned VACV Venus inh -18% and VACV mCherry inh inactive.
For O=C(CSc1nncn1-c1cccnc1)Nc1cccc(C(F)(F)F)c1 the results were VACV Venus inh -7% and VACV mCherry inh -11%.

(further entries)
Screening COC(=O)c1ccccc1NC1=C/C(=N\S(=O)(=O)c2cccs2)c2ccccc2C1=O returned VACV Venus inh inconclusive and VACV mCherry inh inconclusive.
For COc1cc(NC(=O)N[C@@H](Cc2c[nH]c3ccccc23)C(=O)O)c(C(=O)O)cc1OC the results were VACV Venus inh -8% and VACV mCherry inh -12%.
For CCCCC(=O)/C=C/n1c(=S)oc2ccccc21 the results were VACV Venus inh -13% and VACV mCherry inh -13%.
For CC(=O)Nc1ccc(NC(=O)c2cccc3c2-c2ccccc2C3=O)cc1 the results were VACV Venus inh -3% and VACV mCherry inh -10%.
Screening CS(=O)(=O)N1CCN(c2ccccc2[N+](=O)[O-])CC1 returned VACV Venus inh -6% and VACV mCherry inh 2%.
Screening O=S(=O)(Cc1ccccc1)Nc1ccc(F)cc1 returned VACV Venus inh -8% and VACV mCherry inh inactive.
Screening CCN1C(=O)C(CC(=O)NCc2ccc(Cl)cc2)N(CC)C1=O (configuration not stated) returned VACV Venus inh -19% and VACV mCherry inh -14%.
Cc1nn(C(=O)c2c(F)cccc2F)c(C)c1S(=O)(=O)N1CCCCCC1 was read as VACV Venus inh 4% and VACV mCherry inh 10%.
Cc1oc(-c2ccc(Cl)cc2)[n+]([O-])c1C was read as VACV Venus inh 6% and VACV mCherry inh -5%.
For CCOC(=O)N1CCN(S(=O)(=O)c2cc(-c3nn4c(C)nnc4c4ccccc34)ccc2C)CC1 the results were VACV Venus inh -5%.
CCCN=C1NC(=O)C(CC(=O)NCCc2ccc(OC)c(OC)c2)S1 (configuration not stated) was read as VACV Venus inh 1% and VACV mCherry inh -13%.
`CC(=O)c1ccc(NC(=O)CSc2nc(Nc3ccccc3)nc(N3CCOCC3)n2)cc1` gave VACV Venus inh -26% and VACV mCherry inh inconclusive.
For Cc1[nH][nH]c(=O)c1C(c1c(C)[nH][nH]c1=O)c1cn(Cc2ccc(Cl)c(Cl)c2)c2ccccc12 the results were VACV Venus inh -21% and VACV mCherry inh -27%.
Cc1csc2nc(CSc3ccc(Cl)cc3)cn12 was read as VACV Venus inh -13% and VACV mCherry inh inactive.
COc1ccc(N2Cc3cccc(C(=O)N4CCN(C(=O)c5ccco5)CC4)c3C2=O)cc1 was read as VACV Venus inh 12% and VACV mCherry inh -10%.
Screening N#CCCn1nc(-c2ccc(Cl)cc2)cc1Nc1ccccc1NC(=O)C(F)(F)F returned VACV Venus inh -5% and VACV mCherry inh -13%.
For COc1ccc(NS(=O)(=O)c2cc(NC(=O)c3cnc(C)cn3)ccc2N2CCCCC2)cc1 the results were VACV Venus inh -19% and VACV mCherry inh -6%.
`CC1(C)CCCN1CCC(C(N)=O)(c1ccccc1)c1ccccc1` gave VACV Venus inh -8% and VACV mCherry inh inactive.
Cc1cc(C(=O)N/N=C\C(Br)=C\c2ccccc2)c(C)o1 was read as VACV Venus inh -5% and VACV mCherry inh -9%.
`C=CCNCCOCCOc1ccccc1-c1ccccc1` gave VACV Venus inh -19% and VACV mCherry inh inconclusive.
`CCn1c2ccccc2c2nnc(N3CCN(c4ccc(F)cc4)CC3)nc21` gave VACV Venus inh -20% and VACV mCherry inh inactive.
Screening COCC(=O)N1CCC(Oc2ccc(C(=O)NCc3cc(C(C)C)no3)cc2)CC1 returned VACV Venus inh -6% and VACV mCherry inh -7%.
For COc1cc2c(cc1OC)-c1cc(NC3CCCCCC3)nc(=O)n1CC2 the results were VACV Venus inh -27% and VACV mCherry inh -20%.
Screening CCCN(CCC)CCCNc1ccc(C(=O)Nc2cccc(OC)c2)cc1[N+](=O)[O-] returned VACV Venus inh -25% and VACV mCherry inh inconclusive.

The last 2 compounds of the section before come first, to join the parts.
For COc1cc2c(cc1OC)-c1cc(NC3CCCCCC3)nc(=O)n1CC2 the results were VACV Venus inh -27% and VACV mCherry inh -20%.
Screening CCCN(CCC)CCCNc1ccc(C(=O)Nc2cccc(OC)c2)cc1[N+](=O)[O-] returned VACV Venus inh -25% and VACV mCherry inh inconclusive.
COc1cccc(C#Cc2ccc3c(c2)O[C@@H](CN(C)C(=O)c2ccccn2)[C@@H](C)CN([C@H](C)CO)S3(=O)=O)c1 was read as VACV Venus inh -8% and VACV mCherry inh inactive.
Screening CCCCNc1nc2ccccc2nc1Cl returned VACV Venus inh -5% and VACV mCherry inh inactive.
O=C(c1ccnc(-n2cnnn2)c1)N1CCOc2ccc(C(O)CCc3ccccc3)cc2C1 (configuration not stated) was read as VACV Venus inh -1% and VACV mCherry inh -8%.
Screening COc1ccc2c(CC(=O)OCC(=O)NC(N)=O)coc2c1 returned VACV Venus inh 0% and VACV mCherry inh inactive.
O=C(OCn1nnc2ccccc2c1=O)C12CC3CC(CC(O)(C3)C1)C2 was read as VACV Venus inh -13% and VACV mCherry inh inactive.
For COc1cc(C)nc(Oc2ccc(OCCOc3ccc(C)cc3)nn2)n1 the results were VACV Venus inh -4%.
Cc1ccc2c(c1)c(=O)c(C(=O)c1ccc3c(c1)OCO3)cn2Cc1cccc(F)c1 was read as VACV Venus inh 1% and VACV mCherry inh -5%.
